Insulin prom inh – TRM-6 insulin promoter activity inhibition; inhibition, % at 2 µM; actives 0.9% (n = 130,000); TRM-6 cells (human fetal islet line), insulin promoter-eGFP reporter, imaging; reporter expression induced with tamoxifen;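 active means inhibition above the mean plus 3 SD, with well images judged a real hit on visual review, cut at about 60% in these data, passing the limit was not always enough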
PKD1 inh – blocks activity of human protein kinase D1; Q15139; PKD1 kinase fluorescence polarization assay; inhibition, %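 (about 10 µM by stock and volumes)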; actives 0.056% (n = 200,000);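 active means inhibition of 50% or more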;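 further: controls were vehicle for no effect and a reference inhibitor for full effect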
GALR2 agonist – agonists of human galanin receptor 2 (GALR2); GALR2-expressing cells, agonist activation read-out; activation, %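 (tested at 5 µM)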; actives 0.48% (n = 140,000); AID 803;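 active means above mean plus 3 SD of all compounds, about 5% in these data, not always enough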;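 further: 0% = vehicle buffer wells and 100% = reference agonist at full effect; tested in CHO reporter cells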
Target sequence (O43603 whole entry, looked up): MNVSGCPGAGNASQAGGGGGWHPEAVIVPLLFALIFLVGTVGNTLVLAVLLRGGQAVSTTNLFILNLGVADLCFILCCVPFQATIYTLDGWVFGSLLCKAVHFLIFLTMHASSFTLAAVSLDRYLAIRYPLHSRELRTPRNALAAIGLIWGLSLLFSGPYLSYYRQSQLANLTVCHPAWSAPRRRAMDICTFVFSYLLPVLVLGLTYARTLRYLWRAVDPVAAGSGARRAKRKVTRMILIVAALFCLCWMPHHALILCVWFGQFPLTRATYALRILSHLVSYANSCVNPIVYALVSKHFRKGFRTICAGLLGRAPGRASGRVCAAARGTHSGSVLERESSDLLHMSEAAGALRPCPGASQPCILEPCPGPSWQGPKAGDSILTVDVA
RGS16-Gao HTS – modulates binding between human RGS16 and Galphao; AID 1441; bead-based flow cytometry RGS16-Galphao binding, fluorescence; actives lie on both sides; binding response (% of control), % at 10 µM; actives 0.38% (n = 220,000);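 active means below 25% or above 175%, edge rows of some plates excepted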;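 further: Galphao activated by GDP with aluminum fluoride before binding; 100% = wells without compound and 0% = beads without RGS; some results beyond the cut were filed as inactive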
HSV augment – increases HSV replication in cells. actives 0.005% (n = 220,000). AID 1956. HSV replication augmentation in cells, fold increase. maximum fold increase;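 active means peak rise of 1.5-fold or more in the series; tested in PC3 cells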;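 further: first round at 10 µM; read as green reporter fluorescence; hits show the peak of a series up to 25 µM; 1 = signal of infected wells without compound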
Insulin prom inh cell count – also measured in Insulin prom inh; calls as there; normalized cell count, %; measured here: cell count, toxicity; reference of the scale not given here;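 cells exposed to compound for 48 h; stained nuclei by imaging scaled within each plate; lower means fewer cells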
HSV augment primary fold – also measured in HSV augment; calls as there; fold increase; compound at 10 µM; measured here: primary screen fold increase 10 uM; tested in PC3 cells;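 GFP signal in the first replicate; 1 = infected wells without compound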
* marks the source's active call; other numbers are inactive results; i = inactive; nt = no result given.

SMILES,Insulin prom inh,Insulin prom inh cell count,PKD1 inh,GALR2 agonist,RGS16-Gao HTS,HSV augment,HSV augment primary fold
CCOC(=O)C1CCCN(c2c(C(=O)c3ccccc3)cnc3ccc(OC)cc23)C1 (stereo not drawn),nt,nt,2,nt,100,i,0.96
CCOC(=O)c1oc2ccccc2c1NC(=O)COc1cccc(OC)c1,9,104,-2,-2.1,106,i,0.78
Cc1ccnc(N2CCC(C(=O)Nc3ccc(Oc4ccccc4)cc3)CC2)n1,nt,nt,6,-1.0,102,nt,nt
CC(=O)Oc1cc2oc(=O)c3c(c2cc1Cl)CCC3,nt,nt,-7,7.6,96,i,0.93
Cc1ccc(N(CC(=O)N/N=C/c2ccc(OC3CSC3)cc2)S(=O)(=O)c2ccccc2)cc1,nt,nt,0,-2.7,98,i,0.84
COc1ccc(N(C)C(=O)CCC(=O)Nc2ccc3nc(N4CCOCC4)cc(C)c3c2)c(OC)c1,nt,nt,-5,-2.4,99,i,0.88
S=c1[nH]nc(CCCc2n[nH]c(=S)o2)o1,nt,nt,nt,nt,91,i,0.72
CCOc1ccccc1N1C(=O)c2ccc(C(=O)Nc3cccnc3)cc2C1=O,nt,nt,-6,-3.6,82,i,0.92
CCc1nc2ccccc2c(C(=O)NCc2ccccc2)c1C,nt,nt,-3,nt,113,i,0.97
O=C(/C=C/c1ccc(Cl)cc1)NC(=S)Nc1ccc(CN2CCOCC2)cc1,nt,nt,6,-1.8,72,i,0.81
O=C1CN(C(=S)NC(=O)c2ccc(-c3ccccc3)cc2)CCN1,nt,nt,-6,nt,98,i,1
CCn1c(C)c2c(C)nnc(C)c2c1C,32,81,0,-0.9,102,i,1.1
O=C(NCC1CCCO1)c1ccc(Oc2ccc([N+](=O)[O-])cc2)cc1 (stereo not drawn),nt,nt,3,nt,93,i,0.97
O=C(NCCc1ccc(F)cc1)c1cc(-c2ccncc2)nc2ccccc12,nt,nt,nt,nt,121,i,1.1
CCOC(=O)c1cccc(NC(=O)CSc2nnc(-c3ccncc3)n2CCCOC)c1,-12,97,-3,1.6,102,i,0.89
CC(=O)c1c(C)[nH]c(C(=O)OC2CCOC2=O)c1C (stereo not drawn),0,95,5,-2.0,93,i,0.89

Ordered by length of the SMILES (ascending): part of the list above.
SMILES,Insulin prom inh,Insulin prom inh cell count,PKD1 inh,GALR2 agonist,RGS16-Gao HTS,HSV augment,HSV augment primary fold
S=c1[nH]nc(CCCc2n[nH]c(=S)o2)o1,nt,nt,nt,nt,91,i,0.72
CC(=O)Oc1cc2oc(=O)c3c(c2cc1Cl)CCC3,nt,nt,-7,7.6,96,i,0.93
CC(=O)c1c(C)[nH]c(C(=O)OC2CCOC2=O)c1C (stereo not drawn),0,95,5,-2.0,93,i,0.89
CCOC(=O)c1oc2ccccc2c1NC(=O)COc1cccc(OC)c1,9,104,-2,-2.1,106,i,0.78
CCOc1ccccc1N1C(=O)c2ccc(C(=O)Nc3cccnc3)cc2C1=O,nt,nt,-6,-3.6,82,i,0.92
O=C(NCC1CCCO1)c1ccc(Oc2ccc([N+](=O)[O-])cc2)cc1 (stereo not drawn),nt,nt,3,nt,93,i,0.97
O=C(/C=C/c1ccc(Cl)cc1)NC(=S)Nc1ccc(CN2CCOCC2)cc1,nt,nt,6,-1.8,72,i,0.81
CCOC(=O)c1cccc(NC(=O)CSc2nnc(-c3ccncc3)n2CCCOC)c1,-12,97,-3,1.6,102,i,0.89
CCOC(=O)C1CCCN(c2c(C(=O)c3ccccc3)cnc3ccc(OC)cc23)C1 (stereo not drawn),nt,nt,2,nt,100,i,0.96
Cc1ccc(N(CC(=O)N/N=C/c2ccc(OC3CSC3)cc2)S(=O)(=O)c2ccccc2)cc1,nt,nt,0,-2.7,98,i,0.84

Screening results: PubChem, several laboratories
